PABP FP inh = blocks human PABP binding to poly(A) RNA; P11940; fluorescence polarization; actives 1% (n = 290,000); AID 2014; inhibition, % at 35 µM;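 active = 50% or more with normal probe brightness, or confirmed in later tests; about a fifth of its hits are not listed in these tables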;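 also: calls also rest on retests at 20 µM and on dose response follow-up; controls were probe without protein and protein plus probe with vehicle; some compounds called inactive have numbers as strong as hits; many hits fall short of the cut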
CSC inhib = blocks cancer stem cells. inhibition, % at 7.5 µM. actives 1.1% (n = 300,000). cancer stem cell-like cells viability, luminescence;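 active = mean at 75% or more and at least half the replicates too; tested in HMLE shEcad cells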;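 also: 0% = median of negative and 100% = median of positive control wells; the first replicate is given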
Yeast UUG start = modulators of start codon recognition fidelity in yeast; S. cerevisiae UUG-firefly luciferase reporter, luminescence/redox ratio; activity score, % at 18.7 µM; actives 0.13% (n = 350,000); AID 602363;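 active = replicate mean at a twofold rise or more, about +100% in these data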;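 also: firefly luciferase made from a UUG start codon reports start codon fidelity; reporter light over untreated wells divided by growth signal over untreated wells; some hits fall short of that in this replicate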
Rce1 inh = inhibitors of yeast Ras-converting enzyme; yeast membranes, quenched prenylated peptide cleavage fluorescence; Q03530; actives 0.27% (n = 290,000); AID 2563; calls only;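 active = fall in fluorescence gain of 50% or more versus controls, with final raw signal at or below 3038400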;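 also: plate controls were neutral control wells for no effect and wells lacking membranes for full effect; tested at 10 µM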
Target sequence (Q03530 whole entry, looked up): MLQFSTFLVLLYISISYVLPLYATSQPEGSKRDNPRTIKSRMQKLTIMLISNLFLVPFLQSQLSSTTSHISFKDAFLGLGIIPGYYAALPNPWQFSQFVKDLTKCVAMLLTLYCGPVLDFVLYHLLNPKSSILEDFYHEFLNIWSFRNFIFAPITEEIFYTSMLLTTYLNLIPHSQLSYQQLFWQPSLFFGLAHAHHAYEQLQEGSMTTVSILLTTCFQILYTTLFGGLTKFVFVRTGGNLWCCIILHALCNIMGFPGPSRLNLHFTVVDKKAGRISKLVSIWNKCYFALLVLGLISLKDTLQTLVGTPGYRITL
HIV Env fusion = blocks HIV Env-driven cell-cell fusion; HeLa-JRFL Env/CEM21 cell fusion, luciferase; inhibition, % at 12.3 µM; actives 1.1% (n = 360,000); AID 651610;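 active = mean replicate inhibition score of at least 50 and every replicate individually at or above 50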;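 also: 0% = plate neutral controls and 100% = maraviroc near 300 nM; one replicate is shown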
eIF4H inh = inhibitors of RNA binding by human eIF4H. eIF4H fluorescence polarization binding assay. inhibition, % at 35 µM. actives 0.94% (n = 290,000). AID 2012;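 active = 50% or more with normal probe brightness, or confirmed in later tests; about a fifth of its hits are not listed in these tables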;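 also: calls also rest on retests at 20 µM and on dose response follow-up; 0% = protein and probe with vehicle and 100% = probe without protein; strong numbers were not always called active; many hits fall short of the cut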
MT1-MMP act inh = blocks activation of human MT1-MMP | HT1080 RFP-PRO-GFP cells, GFP/RFP ratio fluorescence, overnight; percent of plate control window, DMSO zero | GFP/RFP ratio change, % at 20 µM | actives 0.061% (n = 360,000) | AID 651647;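 active = GFP/RFP ratio change of at least 30% with cell ATP level not reduced by more than half and red fluorescence within 50% of control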; also: strong numbers were not always called active
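Assay system – RFP-PRO-GFP reporter HT1080 cells · Compound dosing – single dose of 20 µM compound, 1% DMSO final · Incubation – overnight compound exposure at 37 °C · Measure – GFP/RFP fluorescence ratio · Benchmarks – DMSO wells and RFP-L50D-GFP cells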
eIF4H inh retest = also measured in eIF4H inh; calls as there; inhibition, %; compound at 20 µM; confirmation average;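 mean of two retest wells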
PABP FP inh retest = second read-out of PABP FP inh, no call of its own (marks repeat the call); inhibition, %; compound at 20 µM; confirmation repeats;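 mean of two retest wells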
MT1-MMP act inh RFP = second read-out of MT1-MMP act inh, no call of its own (marks repeat the call); RFP signal change, %; measured here: RFP expression control read;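 0 = vehicle wells; hits needed this value within 50% of zero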
* hit, by the source's call; i = inactive; / = not tested or not shown.

SMILES	PABP FP inh	CSC inhib	Yeast UUG start	Rce1 inh	HIV Env fusion	eIF4H inh	MT1-MMP act inh	MT1-MMP act inh RFP	others
Cn1cnnc1SCC(=O)Nc1cc(S(=O)(=O)N2CCCCC2)ccc1Cl	3	0	-8	i	14	-5	-1	2
COc1cc(OC)c(C2=NOC(C(=O)O)C2)cc1Cl (configuration not stated)	-2	-15	-23	i	-13	-7	-8	2
O=C1C/C(=C\c2c(F)cccc2Cl)N2CCC1CC2	2	-9	/	i	3	13	0	1
COc1cccc(COc2ccc(N(C)S(=O)(=O)c3ccccc3)cc2)c1	-2	/	-19	i	-2	-11	0	-4
Cc1ccsc1/C=N\NC(=O)c1n[nH]c2c1CCC2	-10	130*	-8	i	2	-6	-6	-7
COc1ccc(C2CC(=O)N3CN(c4ccccc4F)CSC3=C2C#N)cc1OC (configuration not stated)	57	-8	2	i	2	14	-6	5	eIF4H inh retest=31;PABP FP inh retest=30
Cc1cc(C)n(-c2nc3ccccc3n3c(C)nnc23)n1	6	-9	-3	/	-11	2	0	-2
COc1ccc(N2C(=O)C(OC(C)=O)C2c2ccc(C)cc2)cc1 (configuration not stated)	-5	1	-18	i	/	5	13	7
CC(=O)Nc1cccc(-c2nc3ccc(NC(C)=O)cc3[nH]2)c1	1	1	-19	i	/	2	7	0
COc1ccc(C(=O)C2CCCN(C(=O)c3ccnn3C)C2)cc1OC (configuration not stated)	8	-1	4	i	4	-12	7	3
C=CCNC(=O)CSc1nc2sccc2c(=O)n1-c1ccccc1	1	-10	-2	i	-15	2	-3	0
CCN(CC)C(=O)COc1coc(CN2CCN(Cc3ccccc3)CC2)cc1=O	-6	-9	-8	i	-23	-17	-3	2
O=C(CCNC(=O)C1CCN(S(=O)(=O)c2ccc(F)cc2)CC1)NCCc1ccc(Cl)cc1	2	-3	-10	i	4	-7	2	-1
CCOC(=O)c1nnn(-c2nonc2N)c1-c1ccc(OCC)cc1	0	-7	10	i	/	-8	16	-1
Cc1cc(Nc2cccc(Cl)c2)nc(N2CCOCC2)n1	-1	2	/	i	/	-1	0	0
O=C(CSc1nccn1-c1ccc(F)cc1)NCc1ccc2c(c1)OCO2	-4	-6	-29	i	/	-9	10	2
Cc1ccc(/C=C/C(=O)Nc2ccc(O)c3c(=O)cc(-c4ccccc4Cl)oc23)cc1	-2	21	-14	i	-18	-3	5	2
COc1ccc(-c2noc(-c3ccoc3C)n2)cc1OC	-5	13	/	i	-85	3	2	-3
CCn1c(SCC(=O)N2CCCc3ccccc32)nc2ccccc2c1=O	-3	8	-15	i	11	-13	-6	-10
CC(=O)Nc1ccc(S(=O)(=O)NCc2ccc(C(=O)NCc3ccc4c(c3)OCO4)cc2)cc1	1	-10	-4	i	/	3	0	4

The last two compounds of the section before lead into the next:
SMILES	PABP FP inh	CSC inhib	Yeast UUG start	Rce1 inh	HIV Env fusion	eIF4H inh	MT1-MMP act inh	MT1-MMP act inh RFP	others
CCn1c(SCC(=O)N2CCCc3ccccc32)nc2ccccc2c1=O	-3	8	-15	i	11	-13	-6	-10
CC(=O)Nc1ccc(S(=O)(=O)NCc2ccc(C(=O)NCc3ccc4c(c3)OCO4)cc2)cc1	1	-10	-4	i	/	3	0	4
OCCC1CN(Cc2ccc3nsnc3c2)CCN1C1CCCC1 (configuration not stated)	3	3	/	i	7	10	1	5
CCOc1ccc(-c2nnc(SCC(=O)N3CCCC3)o2)cc1	0	-21	-2	i	-19	2	0	0
N/C(=N\O)c1cccc(CS(=O)(=O)c2ccccn2)c1	-7	-8	/	i	-1	-7	1	2
CSCc1nc2sc(C(=O)Nc3nc(C)cs3)c(C)c2c(=O)[nH]1	5	-3	-21	i	1	22	5	-4
CCOC(=O)C1CCN(S(=O)(=O)CCNC(=O)c2cccc(OC)c2)CC1	/	-1	-8	i	-38	/	-1	0
Cc1ccc(-c2nc3ccccc3s2)cc1NC(=O)c1cc(-n2cnnc2)ccc1Cl	-4	16	-12	i	/	-6	5	-2
CCc1ccc(N2CC(C(=O)Nc3ccc(F)cc3)CC2=O)cc1 (configuration not stated)	-1	/	-4	i	15	-1	0	2
O=C(NCCCN1CCOCC1)c1cc2cc(Br)ccc2oc1=O	-3	-5	-15	i	/	-8	5	10
O=C(/C=C/C=C/c1ccccc1)c1ccco1	-3	60	-3	i	-48	-11	3	-4
Cc1cc(Nc2ccccc2)n2nc(C)c(-c3ccccc3)c2n1	5	37	-13	i	-21	7	3	-5
Cc1ccccc1CN(c1ccc(C(=O)N2CCCC2)cc1)S(C)(=O)=O	11	2	-9	i	/	-5	-1	1
CC(C)N(C(=O)CSc1nnc(-c2ccc3c(c2)OCO3)n1C)C(C)C	-9	-8	/	/	4	7	0	2
CCOc1ccc(/C=N/Nc2ccc(Cl)nn2)c(O)c1	6	15	-25	i	-23	0	6	1
CCOc1cc(/C=C2\SC(=Nc3ccc(F)cc3)N(c3ccc(F)cc3)C2=O)ccc1OCC(=O)O	-6	-2	/	/	/	-1	/	/
COc1ccc(C(=O)COc2ccc3ccc(=O)oc3c2)c(OC)c1	1	10	-10	i	-335	-14	3	1
O=C(NNC1CC(=O)N(c2ccc3c(c2)OCCO3)C1=O)c1ccccc1 (configuration not stated)	2	-18	-18	i	-37	-2	-1	1
Cc1cc(C)n(C(=O)c2ccc(C)c(Br)c2)n1	5	-13	-18	i	10	-6	-1	5
COc1cccc(C2N(c3ccc(Cl)c(Cl)c3)C(=O)C3CCCN32)c1OC (configuration not stated)	-13	-17	8	i	-8	-8	-1	0
CC(C)OP(=O)(c1ccc(N(C)C)cc1)C(Nc1ccccc1)c1ccccc1 (configuration not stated)	2	2	/	i	85*	-10	-2	1
COc1ccccc1N(C)c1cc2c(c3c1ccn3C)C1CCC2O1 (configuration not stated)	/	/	-22	/	18	/	4	9
CN(CCOc1ccccc1)C(=O)c1cc(-c2ccco2)nc2ccccc12	/	/	-7	/	14	/	-8	-1
CCS(=O)(=O)n1nc(-c2ccc(OC)cc2)nc1N	-5	2	/	i	3	4	0	-2
O=[N+]([O-])c1ccc(-c2cnc(NO)nc2)cc1	-11	/	-3	i	-19	-8	-4	-2
CCCOc1ccc(N2C(=O)CC(S/C(N)=N/N=C(\C)c3cccs3)C2=O)cc1 (configuration not stated)	-2	14	-14	i	/	-2	1	1
O=C(Nc1ccc(F)cc1F)N1CCCN(c2ccc(C(F)(F)F)cn2)CC1	8	6	/	i	10	2	6	-30
Cc1ccc(S(=O)(=O)CCN2CCC(n3cccc3)CC2)cc1	2	-8	6	i	9	-4	5	-1
COc1ccc(OC)c(CN2CCN(C(=O)CCC(=O)c3cccs3)CC2)c1	/	5	-17	i	4	/	7	6
Cc1ccc(NC(=S)NC2CCN(Cc3ccccc3)CC2)c(C)c1	-14	21	/	i	-20	-6	3	3
COc1ccc(CCC(=O)OCC(=O)NC(=O)c2ccc(Cl)cc2)cc1	/	-13	-9	/	-7	/	-1	1
CC(C)c1ccc(NC2CCCN(C(=O)c3cnc4ccccn4c3=O)C2)cc1 (configuration not stated)	-9	4	-4	i	/	0	3	-1
COC(=O)Nc1ccc(SCC(=O)c2cccc([N+](=O)[O-])c2)cc1	-4	-12	-20	i	0	-3	0	-2
COCC(=O)n1nc(-c2ccccc2)nc1NCc1cccs1	23	/	/	/	-1	-2	1	2
N#Cc1ccccc1NS(=O)(=O)c1cc2c3c(c1)CCN3C(=O)CC2	/	-5	-17	i	-9	/	2	6
Clc1ccc(Cn2ncc3c(NCc4ccccc4)ncnc32)cc1	-3	66	7	i	-36	-4	-6	-10
Cc1[nH]n(-c2ccc([N+](=O)[O-])cc2)c(=O)c1C=NCCN1CCN(C(=O)c2ccc(F)cc2)CC1	-4	45	-11	i	-32	-4	3	11
Cc1ccc(-c2noc(-c3ccoc3C)n2)cc1	4	-3	-6	i	-193	-4	-3	3
O=C(C1CC(c2ccccc2O)=NO1)N1CCCCC1 (configuration not stated)	3	-6	-13	i	/	4	-4	3
O=C(Nc1ccccc1F)c1ccn[nH]1	4	-5	/	i	-13	0	3	4
C=CCN(Cc1ccco1)S(=O)(=O)c1ccc(Cl)cc1	-7	-9	-18	i	-5	0	0	0
NC(=S)N/N=C/c1ccc(-c2cc(Cl)c(Cl)cc2Cl)o1	-2	14	/	i	-23	1	-6	1
COc1cccc(-c2cc(C(=O)NCc3ccc(Cl)cc3)no2)c1	-23	12	-8	i	-43	-13	4	-3
C/C(=N\OC(=O)NC(C)C)c1sc(-c2ccccc2)nc1C	-3	-8	-10	i	/	-8	1	-1
CC(C)NC(=S)N=Nc1c(O)[nH]c2ccc(C(C)C)cc12	-6	33	-1	i	25	8	5	-5
CC(/C=N/n1c(-c2cccnc2)n[nH]c1=S)=C\c1ccco1	51*	-1	-20	i	-5	76*	3	-1
CCOc1cc(C(=O)Nc2ccc3c(c2)OCO3)ccc1OCCOc1ccccc1Cl	-2	-6	-5	i	/	-2	12	4
O=C(Nc1cccnc1N1CCOCC1)c1cc2ccccc2oc1=O	-2	2	-3	i	/	-4	1	-3
CN1C(=O)N(C)C2C1N(C)S(=O)(=O)N2C (configuration not stated)	-8	-13	-5	i	/	-17	7	7
O=C(Nc1nnc(-c2ccc(Cl)cc2)o1)Nc1ccccc1F	3	-10	-13	i	-3	-3	1	6
CSc1nc(N)nc2c1ncn2CC(=O)NCc1ccccc1	/	/	-15	/	22	/	5	0
CCOc1ccccc1C(=O)NC1CC2CCCC(C1)N2Cc1ccc(C)cc1 (configuration not stated)	-7	20	-12	i	-4	-7	2	-2
(continued)
SMILES	PABP FP inh	CSC inhib	Yeast UUG start	Rce1 inh	HIV Env fusion	eIF4H inh	MT1-MMP act inh	MT1-MMP act inh RFP	others
COc1cccc(/C=N/NC(=S)NCCc2ccccc2)c1	0	-4	-27	i	8	-5	0	-1
CCOc1ccccc1C(=O)N/N=C/c1coc2ccc(Cl)cc2c1=O	7	-5	-8	i	3	-8	-16	-6
CC1CCCCN1CC(=O)Nc1ccc2c(c1)OCO2 (configuration not stated)	/	7	12	/	-4	/	-4	-2
Cc1cc(=O)n2nc(N3CCCC(C(=O)Nc4ccc(C)c(C)c4)C3)sc2n1 (configuration not stated)	2	-20	-5	i	-4	-8	0	-1
CC(OC(=O)CCCN=C1NS(=O)(=O)c2ccccc21)C(=O)c1ccccc1 (configuration not stated)	/	24	-22	i	17	/	-1	-1
CC1CCCCN1CCNC(=O)c1ccc2c(c1)N(Cc1cccc(Cl)c1)C(=O)c1ccccc1S2(=O)=O (configuration not stated)	/	/	-2	/	-17	/	0	-3
CCCCNC(=O)c1ccc(/C=C2\Oc3ccccc3N(C)C2=O)cc1	-6	7	/	i	-84	-12	2	0
O=C(NNc1ccc(O)cc1)c1ccc(Br)cc1	15	44	6	/	12	10	-1	0
CCc1ccc2nc(N(CCCN(C)C)C(=O)c3ccc4c(c3)OCCO4)sc2c1	-2	-9	-9	i	/	-10	1	1
Cc1nn(S(=O)(=O)c2ccc(C(C)(C)C)cc2)c(C)c1S(=O)(=O)N1CCOCC1	7	6	4	i	-9	-6	2	2

5 records picked at random from the list so far:
SMILES	PABP FP inh	CSC inhib	Yeast UUG start	Rce1 inh	HIV Env fusion	eIF4H inh	MT1-MMP act inh	MT1-MMP act inh RFP	others
O=C(Nc1cccnc1N1CCOCC1)c1cc2ccccc2oc1=O	-2	2	-3	i	/	-4	1	-3
O=C(NNC1CC(=O)N(c2ccc3c(c2)OCCO3)C1=O)c1ccccc1 (configuration not stated)	2	-18	-18	i	-37	-2	-1	1
CC(/C=N/n1c(-c2cccnc2)n[nH]c1=S)=C\c1ccco1	51*	-1	-20	i	-5	76*	3	-1
Cc1ccc(S(=O)(=O)CCN2CCC(n3cccc3)CC2)cc1	2	-8	6	i	9	-4	5	-1
COc1ccc(C(=O)C2CCCN(C(=O)c3ccnn3C)C2)cc1OC (configuration not stated)	8	-1	4	i	4	-12	7	3

The list is partial, so the mix of outcomes need not match the whole.
